Source: PubChem
2A Renilla: lowers the Renilla signal of an FMDV 2A StopGo reporter. Potency, µM (titrated, usually from 57.5 µM), for inactives: at the top dose signal change, negative = less light. HEK cells with a luciferase reporter of 2A StopGo recoding. AID 1745857. 120,000 compounds, 0.32% hits; active means well fitted falling curve with a large enough effect; inconclusive means small, poorly fitted or top-dose-only effect; inactive means no such curve, though single readings can be large or run the other way; also: nearly all actives have a fitted effect of over 55% in size; overnight with compound
StopGo FLuc: lowers the firefly signal of an FMDV 2A StopGo reporter. HEK cells with a luciferase reporter of 2A StopGo recoding. Potency, µM (titrated, usually from 57.5 µM), for inactives: at the top dose signal change, negative = less light. 120,000 compounds, 0.23% hits; active = well fitted falling curve with a large enough effect; inconclusive = small, poorly fitted or top-dose-only effect; inactive = no such curve, though single readings can be large or run the other way; also: nearly all actives have a fitted effect of over 60% in size; overnight with compound
* hit, by the source's call; [ ] = remark or other dose. % is scaled to controls: 0 for no effect and ±100 for the full control effect; potency is read from the fitted curve at half-maximal effect. This is a subset, so the mix of outcomes need not match the whole.

O=C(O)c1ccc2c(c1)N(Cc1ccc(F)cc1)C(=O)c1ccccc1S2=O (stereo unspecified) was read as 2A Renilla 8.9µM* and StopGo FLuc inconclusive.
CCCc1ccc(-c2c(C)sc(NC(=O)c3ccc(C)s3)c2C#N)cc1 was read as 2A Renilla -1% and StopGo FLuc 30%.
`Cc1ccc(Cl)cc1NC(=O)c1ccc2nc(CCc3ccccc3)oc2c1` gave 2A Renilla -16% and StopGo FLuc 1%.
`O=C(Nc1nnc(S(=O)(=O)N2CCCCCC2)s1)c1cccc(Br)c1` gave 2A Renilla 4% and StopGo FLuc 45%[activator].
For CC(=O)N1CCC(C(=O)N2CCN(c3cccc(Cl)c3)CC2)CC1 the results were 2A Renilla -7% and StopGo FLuc -5%.
CCOc1ccc(NC(=O)Cn2c(=O)n(Cc3ccc(C(=O)NCc4ccc(C)cc4)cc3)c(=O)c3ccccc32)cc1 was read as 2A Renilla -4% and StopGo FLuc -3%.
Screening N=c1nc(N)c(N)c(N)n1O returned 2A Renilla -6% and StopGo FLuc -14%.
`COC(=O)CC(=O)CSc1nc2cc(C(=O)NCC(C)C)ccc2c(=O)n1CCc1ccccc1` gave 2A Renilla 8% and StopGo FLuc -5%.
For CC(C)c1ccc(Cn2c(C3CC(=O)N(C(C)(C)C)C3)nc3ccccc32)cc1 (stereo unspecified) the results were 2A Renilla -28% and StopGo FLuc -5%.
O=C(CCc1ncc(-c2ccc(Cl)cc2)o1)N1CCC(C(=O)N2CCOCC2)CC1 was read as 2A Renilla 4% and StopGo FLuc 79%[activator].
For Cn1c(=O)c2c(ncn2CC(=O)NCc2ccco2)n(C)c1=O the results were 2A Renilla -8% and StopGo FLuc -5%.
Screening O=C(NC1CC(=O)N(c2ccc(Cl)cc2)C1)C1CCCCC1 (stereo unspecified) returned 2A Renilla -1% and StopGo FLuc -9%.
`COc1ccc(-c2nc3ccccc3o2)cc1NC(=O)C(C)Oc1ccc(Cl)cc1Cl` (stereo unspecified) gave 2A Renilla 10% and StopGo FLuc -6%.
For O=C(Nc1cccc(Br)c1)c1ccccc1OCC1CCCO1 (stereo unspecified) the results were 2A Renilla -9% and StopGo FLuc 8%.
COc1ccccc1CNC(=O)CCn1c(=O)c2ccccc2n(CC(=O)Nc2ccc(C)cc2C)c1=O was read as 2A Renilla -7% and StopGo FLuc -12%.
Screening CC#CC[N+](C)(C)CCCCCCCC returned 2A Renilla -2% and StopGo FLuc 4%.
Cc1cccc(Nc2cc(C)nc3nc(-c4ccccc4)nn23)c1 was read as 2A Renilla -15% and StopGo FLuc -6%.
`O=C(Nc1ccc(Cl)c(Cl)c1)C12CC3CC(CC(C3)C1)C2` gave 2A Renilla 11% and StopGo FLuc 33%[activator].
For CCc1ccc(-c2cc(C)no2)cc1S(=O)(=O)NCc1ccc(OC)cc1 the results were 2A Renilla 241%[activator] and StopGo FLuc 3%.
Screening O=C(CCc1nnc2ccc(NCc3ccc4c(c3)OCO4)nn12)N1CCc2ccccc2C1 returned 2A Renilla -4% and StopGo FLuc 12%.
Screening Cc1ccc2c(CC(=O)N(Cc3ccc(Cl)cc3)Cc3ccco3)coc2c1 returned 2A Renilla -9% and StopGo FLuc 0%.
Screening COc1cc(C)cc2oc(=O)c(CC(=O)NCCc3cccc(F)c3)c(C)c12 returned 2A Renilla 19% and StopGo FLuc 14%.
For Cc1cccc(-c2nc(C#N)c(NCc3ccc4c(c3)OCO4)o2)c1 the results were 2A Renilla 159%[activator] and StopGo FLuc 144%[activator].
N#Cc1ccc(S(=O)(=O)N2CCC(Oc3cccc(C(F)(F)F)c3)CC2)cc1 was read as 2A Renilla -5% and StopGo FLuc -18%.
Screening O=C(O)CN1C(=O)S/C(=C/c2ccc(F)cc2)C1=O returned 2A Renilla -4% and StopGo FLuc -1%.
Screening CC1CCc2noc(NC(=O)c3ccccc3[N+](=O)[O-])c2C1 (stereo unspecified) returned 2A Renilla 5% and StopGo FLuc 0%.
CC(C)NC(=O)NC(=O)CSc1nnc(-c2c[nH]c3ccccc23)o1 was read as 2A Renilla 36%[activator] and StopGo FLuc 83%[activator].
`CCc1nc(C#N)c(N2CCN(c3cccc(Cl)c3)CC2)o1` gave 2A Renilla -9% and StopGo FLuc 1%.
`CN(Cc1cccc(F)c1)Cc1cc(=O)n2cc(Br)ccc2n1` gave 2A Renilla -5% and StopGo FLuc 16%.
COc1ccc(-c2ccc(CCC(=O)NC3CCS(=O)(=O)C3)o2)cc1 (stereo unspecified) was read as 2A Renilla -5% and StopGo FLuc 61%[activator].

Quoted at random: 3 entries already listed, in no set order.
COc1ccccc1CNC(=O)CCn1c(=O)c2ccccc2n(CC(=O)Nc2ccc(C)cc2C)c1=O was read as 2A Renilla -7% and StopGo FLuc -12%.
Cc1cccc(Nc2cc(C)nc3nc(-c4ccccc4)nn23)c1 was read as 2A Renilla -15% and StopGo FLuc -6%.
For CC(C)c1ccc(Cn2c(C3CC(=O)N(C(C)(C)C)C3)nc3ccccc32)cc1 (stereo unspecified) the results were 2A Renilla -28% and StopGo FLuc -5%.

Going on with the list.
For CCc1nnc(SCC(=O)Nc2cc(OC)cc(OC)c2)c2cc3sccc3n12 the results were 2A Renilla -17% and StopGo FLuc 0%.
`Cc1ccc(S(=O)(=O)N2CCOCC2)cc1C(=O)Nc1ccccc1-c1nc2ccccc2[nH]1` gave 2A Renilla 0% and StopGo FLuc -22%.
Screening COc1ccccc1Cc1nc2ccccc2nc1SCC(=O)N1CCN(c2ccccc2)CC1 returned 2A Renilla -24% and StopGo FLuc -21%.
Screening CCC1c2ccsc2CCN1C(=O)CCC(=O)N1CCN(S(=O)(=O)c2ccccc2)CC1 (stereo unspecified) returned 2A Renilla -27% and StopGo FLuc -25%.
For CCc1ccc(OCC(=O)N(Cc2ccc(C)cc2)Cc2ccco2)cc1 the results were 2A Renilla 0% and StopGo FLuc 8%.
For CCC(C)NC(=O)CCC(=O)N1Cc2ccccc2Oc2ncccc21 (stereo unspecified) the results were 2A Renilla 2% and StopGo FLuc 1%.
`O=C(Cn1c(=O)c(C(F)(F)F)nc2ccccc21)N1CCN(c2ccccc2F)CC1` gave 2A Renilla -6% and StopGo FLuc -2%.
Cc1oc2cc(OCCN3CCC(C(N)=O)CC3)ccc2c(=O)c1-c1ccc(Br)cc1 was read as 2A Renilla -14% and StopGo FLuc -4%.
Fc1cccc(F)c1-c1nc(-c2ccncc2)no1 was read as 2A Renilla -5% and StopGo FLuc 106%[activator].
Screening CCCN(CCC)c1nn2c(=O)c(C(=O)NCc3cccc(OC)c3)cnc2s1 returned 2A Renilla 10% and StopGo FLuc 2%.

6 entries out of the list, ordered by molar mass, highest first:
Screening COc1ccccc1Cc1nc2ccccc2nc1SCC(=O)N1CCN(c2ccccc2)CC1 returned 2A Renilla -24% and StopGo FLuc -21%.
Screening CCC1c2ccsc2CCN1C(=O)CCC(=O)N1CCN(S(=O)(=O)c2ccccc2)CC1 (stereo unspecified) returned 2A Renilla -27% and StopGo FLuc -25%.
`O=C(Cn1c(=O)c(C(F)(F)F)nc2ccccc21)N1CCN(c2ccccc2F)CC1` gave 2A Renilla -6% and StopGo FLuc -2%.
Screening CCCN(CCC)c1nn2c(=O)c(C(=O)NCc3cccc(OC)c3)cnc2s1 returned 2A Renilla 10% and StopGo FLuc 2%.
For CCc1ccc(OCC(=O)N(Cc2ccc(C)cc2)Cc2ccco2)cc1 the results were 2A Renilla 0% and StopGo FLuc 8%.
Fc1cccc(F)c1-c1nc(-c2ccncc2)no1 was read as 2A Renilla -5% and StopGo FLuc 106%[activator].

(cont.)
For Cc1cccc(NC(=O)CN2C(=O)c3ccccc3Sc3ncccc32)c1C the results were 2A Renilla -16% and StopGo FLuc -23%.
`O=C(NCc1ccccc1Cl)c1ccc(NC(=O)N2CCCCc3ccccc32)cc1` gave 2A Renilla -13% and StopGo FLuc -6%.
For CC(C)(C)NC(=O)COC(c1ccccc1)c1ccccc1 the results were 2A Renilla 5% and StopGo FLuc -5%.
O=S(=O)(c1ccc(F)cc1)N1CCn2cccc2C1c1ccccc1F (stereo unspecified) was read as 2A Renilla 0% and StopGo FLuc 8%.
Screening CCN(CC)c1ccc(NS(=O)(=O)c2ccc(C(C)C)cc2)cc1C(=O)O returned 2A Renilla -1% and StopGo FLuc 4%.
`O=C(Nc1nc2ccccc2s1)NC1CC(=O)N(c2cccc(F)c2)C1` (stereo unspecified) gave 2A Renilla 1% and StopGo FLuc 11%.
For CC(C)c1ccc(S(=O)(=O)NCc2nc3cccnc3n2Cc2ccc(F)cc2)cc1 the results were 2A Renilla 169%[activator] and StopGo FLuc -14%.
`O=C(NC1C2CC3CC(C2)CC1C3)c1cccc(Cl)c1` (stereo unspecified) gave 2A Renilla 22% and StopGo FLuc 7%.
`O=C(c1ccc2c(=O)n(CCc3ccccc3)c(=O)[nH]c2c1)N1CCN(c2ccc(F)cc2)CC1` gave 2A Renilla -2% and StopGo FLuc 29%.
`Cc1cccc(NC(=O)Cn2c(=O)n(CCCS(=O)(=O)C3CCCCC3)c(=O)c3ccccc32)c1` gave 2A Renilla 0% and StopGo FLuc 11%.
O=C(NCCn1cc(SCc2ccc(C(F)(F)F)cc2)c2ccccc21)c1cccs1 was read as 2A Renilla -17% and StopGo FLuc -20%.
Screening Cc1ccc2nc(COc3ccccc3NC(=O)COc3ccc(F)cc3)cc(=O)n2c1 returned 2A Renilla 47%[activator] and StopGo FLuc -2%.
`COc1cc(OC)c(N(C)C(=O)c2cc3c(s2)-c2ccccc2OC3)cc1Cl` gave 2A Renilla 2% and StopGo FLuc 3%.
For CC1=C(c2ccc(C)c(C)c2)S(=O)(=O)N(Cc2ccc(C(=O)NCc3ccccc3F)cc2)C1=O the results were 2A Renilla -24% and StopGo FLuc 0%.
`CCC(=O)N1CCc2cc(Br)cc(S(=O)(=O)CCC(=O)NCCc3ccc(Cl)cc3)c21` gave 2A Renilla -3% and StopGo FLuc -13%.
For COc1ccc2c(c1)c1c(c(=O)n(Cc3ccccc3)c(=O)n1CC(=O)NCc1ccccc1)n2C the results were 2A Renilla 0% and StopGo FLuc 6%.
COc1ccc(OC)c(NC(=O)Nc2cccc(OCc3cc(=O)n4cc(C)ccc4n3)c2)c1 was read as 2A Renilla -6% and StopGo FLuc 16%.
For CN1CCN(C(=O)CN2CCN(C(C(=O)O)c3cn(CC(=O)O)c4cc(Cl)ccc34)CC2)CC1 (stereo unspecified) the results were 2A Renilla -9% and StopGo FLuc -3%.
Screening Nc1nn(Cc2ccc(F)cc2)cc1Br returned 2A Renilla 8% and StopGo FLuc 21%.
For c1ccc(Nc2nc(NCc3ccco3)nc3c2cnn3-c2ccccc2)cc1 the results were 2A Renilla 10% and StopGo FLuc 96%[activator].
`Cc1ccc(CNC(=O)[C@H](C)NC(=O)[C@@H]2Cc3ccccc3CN2)cc1` gave 2A Renilla -3% and StopGo FLuc -2%.
Screening N[C@H](Cc1c[nH]c2ccccc12)C(=O)O returned 2A Renilla 0% and StopGo FLuc -8%[11.5 µM].
Screening COc1ccc(C2C(C#N)=C(N)N(c3ccc(C)cc3)C3=C2C(=O)CCC3)cc1 (stereo unspecified) returned 2A Renilla 11% and StopGo FLuc 7%.
`COCCNc1oc(-c2ccccc2C)nc1C#N` gave 2A Renilla 13% and StopGo FLuc 67%[activator].
Cc1ccc2oc(C(=O)Nc3nnc(CC(C)C)s3)cc(=O)c2c1 was read as 2A Renilla -5% and StopGo FLuc -8%.
`Cn1c(=O)c2c(nc(N3CCCC3)n2CCc2ccccc2)n(C)c1=O` gave 2A Renilla 4% and StopGo FLuc 15%.
For CCc1cccc(C)c1NC(=O)c1cc(S(=O)(=O)NCc2ccccc2Cl)ccc1F the results were 2A Renilla 22% and StopGo FLuc 7%.
`COP(=S)(OC)Oc1cc(Cl)c(Cl)cc1Cl` gave 2A Renilla -5% and StopGo FLuc 20%[11.5 µM].
`COc1ccccc1-c1c(C)nn2c(SCC(=O)NCc3ccccc3)cc(C)nc12` gave 2A Renilla 1% and StopGo FLuc -1%.
Screening CCOc1ccccc1NC(=O)Cn1ccn(Cc2ccc(C)cc2)c(=O)c1=O returned 2A Renilla -28% and StopGo FLuc 1%.
Screening Cc1c(C(=O)c2cccs2)oc2ccccc12 returned 2A Renilla 184%[activator] and StopGo FLuc 121%[activator].
`O=C(Nc1nc(-c2ccc(Br)s2)cs1)C1CCC1` gave 2A Renilla inconclusive and StopGo FLuc 0%.
Cc1nc(NC(=O)CCc2ccccc2)sc1C was read as 2A Renilla 6% and StopGo FLuc 195%[activator].
COc1ccc(CNC(=O)CC(C)CC(=O)O)cc1 (stereo unspecified) was read as 2A Renilla 13% and StopGo FLuc 5%.
For Cc1ccccc1OCC(=O)Nc1cccc(C(=O)OCc2cc(=O)n3c(C)csc3n2)c1 the results were 2A Renilla 38%[activator] and StopGo FLuc -33%.
`NC(=O)c1cccc(C(=O)N2CCCC(c3nc4ccccc4o3)C2)c1` (stereo unspecified) gave 2A Renilla -4% and StopGo FLuc 16%.
For CCOc1ccc(C(=O)Nc2ccccc2OCc2cc(=O)n3ccccc3n2)cc1 the results were 2A Renilla -11% and StopGo FLuc -4%.
O=C(O)c1cc(-c2cccc(F)c2)no1 was read as 2A Renilla 6% and StopGo FLuc 15%.
Cc1ccc(C(=O)NCCc2c[nH]c3ccc(Cl)cc23)cc1 was read as 2A Renilla 13% and StopGo FLuc 82%[activator].
`CCCOc1ccccc1CCN` gave 2A Renilla -10% and StopGo FLuc -10%.
CCc1nnc(SC(CC)C(=O)Nc2ccc(OC)c(Cl)c2)c2cc3occc3n12 (stereo unspecified) was read as 2A Renilla 0% and StopGo FLuc -15%.
Screening Cc1ccc(C(O)CNC(=O)c2ccccc2)cc1 (stereo unspecified) returned 2A Renilla 13% and StopGo FLuc 99%[activator].
